Vaccinia inh: blocks a specific stage of Vaccinia orthopoxvirus infection, primary screen, cell-based, single point; Vaccinia-infected cells, mCherry/Venus stage reporter fluorescence; stronger effect = lower value; some inactives read as strong as hits; activity change (mCherry), % (no concentration beside the values); hit rate 0.01% among 89,000; AID 1053133, 2014;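 active = mCherry past -33% and 40 or more points under the early reporter, replicates agreeing; inconclusive = past -33% without that gap or agreement; tested in A549 cells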;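 note: scaled between vehicle wells and reference inhibitor wells; 23 nL library stock went into each well; one replicate is shown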
Vaccinia inh Venus: recorded beside Vaccinia inh, whose call it bears; activity change (Venus), %; measured here: Venus reporter, other viral stage;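 negative = less Venus signal; first of two replicates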
An asterisk follows results filed as active; u = inconclusive; x = not tested or not shown; & = joins results of further samples. Not all compounds are listed, so the mix of outcomes need not match the whole.

canonical_smiles	Vaccinia inh	Vaccinia inh Venus
Cc1noc(C)c1NC(=O)N(C)C[C@@H]1Oc2ccc(NC(=O)CCCN(C)C)cc2C(=O)N([C@@H](C)CO)C[C@@H]1C	7	12
O=C(NC1CC1)C1=C[C@H](c2csc3ccccc23)C[C@H](OCc2ccc(CO)cc2)O1	-12	-6
COc1ccc2c3c([nH]c2c1)[C@H](CO)N(C(=O)C1CCC1)CC31CCN(C)CC1	0	0
COCC(=O)N1[C@H](CO)[C@@H](c2ccc(C#CCC3CCCC3)cc2)[C@@H]1C#N	-1	-5
C[C@H](O)C#Cc1ccc([C@H]2[C@H](CO)N3CCCCN(CC4CC4)C[C@@H]23)cc1	15	11
C[C@@H]1CN([C@@H](C)CO)C(=O)c2cccc(NS(=O)(=O)c3cccs3)c2O[C@H]1CN(C)Cc1ccc(Cl)c(Cl)c1	-5	2
Cc1ccc(S(=O)(=O)N(C)C[C@H]2OCCCC[C@@H](C)Oc3ccc(NS(C)(=O)=O)cc3C(=O)N([C@@H](C)CO)C[C@@H]2C)cc1	4	3
CCCNC(=O)N1C[C@@H]2[C@H](c3ccccc31)[C@@H](CO)N2C(=O)c1ccncc1	5	6
CC(C)NC(=O)N(C)C[C@@H]1Oc2ccc(NS(=O)(=O)c3cn(C)cn3)cc2CC(=O)N([C@H](C)CO)C[C@@H]1C	16	14
CC(C)NC(=O)Nc1cccc2c1O[C@@H](CN(C)Cc1ccccc1)[C@@H](C)CN([C@@H](C)CO)C2=O	0	3
COc1ccc2c3c(n(C)c2c1)[C@H](CO)N(C(=O)NC(C)C)CC31CN(CC2CCCCC2)C1	-33	-28
C[C@H]1CN([C@@H](C)CO)C(=O)c2cc(C#Cc3cccnc3)cnc2O[C@H]1CN(C)Cc1cccnc1	13	6
C[C@H](CO)N1C[C@H](C)[C@@H](CN(C)C(=O)Nc2ccc(N3CCN(C)CC3)cc2)OCc2cnnn2CCCC1=O	6	11
COCC(=O)Nc1ccc2c(c1)OC[C@H](C)N(C(=O)CC1CC1)C[C@@H](C)[C@@H](OC)CN(C)C2=O	10	5
C[C@@H]1CN([C@H](C)CO)C(=O)c2cc(NC(=O)NC3CCCCC3)ccc2O[C@@H]1CN(C)Cc1ccc(Cl)c(Cl)c1	-12	-4
CCCC#Cc1cnc2c(c1)C(=O)N([C@H](C)CO)C[C@H](C)[C@@H](CN(C)C(=O)CCN1CCCCC1)O2	-1&24	0&3
COc1ccc(S(=O)(=O)Nc2ccc3c(c2)CC(=O)N([C@@H](C)CO)C[C@H](C)[C@H](CN(C)C(=O)Nc2c(C)noc2C)O3)cc1	8	11
C[C@@H]1CN([C@H](C)CO)C(=O)CCCn2nncc2CO[C@H]1CN(C)Cc1ccc(Oc2ccccc2)cc1	-30	-24
COc1ccc(S(=O)(=O)N2CCCCN3[C@@H](CO)[C@@H](c4ccc(-c5cccnc5)cc4)[C@@H]3C2)cc1	-24	-29
Cc1ccccc1-c1ccc2c(c1)O[C@@H](CN(C)C(=O)Nc1ccccc1)[C@@H](C)CN([C@@H](C)CO)S2(=O)=O	u	x
COc1ccc(-c2ccccc2[C@H]2[C@@H](C#N)N(C(=O)NC3CCCCC3)[C@H]2CO)cc1	-13	-12
C[C@H](CO)N1C[C@H](C)[C@H](CN(C)Cc2ccc(-c3ccccc3)cc2)Oc2ccc(NS(C)(=O)=O)cc2CC1=O	-28	-23
O=C(NCC1CC1)[C@@H]1[C@@H](CO)[C@@H]2Cn3c(ccc(-c4cncnc4)c3=O)[C@@H]2N1C(=O)NC1CCCC1	0	11
COc1ccc(S(=O)(=O)Nc2ccc3c(c2)C(=O)N([C@@H](C)CO)C[C@@H](C)[C@H](CN(C)C(=O)Cc2ccccc2)OCCCC[C@H](C)O3)cc1	-3	-6

One compound at a time (already shown):
Entry for C[C@@H]1CN([C@H](C)CO)C(=O)CCCn2nncc2CO[C@H]1CN(C)Cc1ccc(Oc2ccccc2)cc1 : Vaccinia inh = -30; Vaccinia inh Venus = -24
Entry for C[C@H](CO)N1C[C@H](C)[C@H](CN(C)Cc2ccc(-c3ccccc3)cc2)Oc2ccc(NS(C)(=O)=O)cc2CC1=O : Vaccinia inh = -28; Vaccinia inh Venus = -23

Following part.
canonical_smiles	Vaccinia inh	Vaccinia inh Venus
C[C@@H]1CCCCO[C@H](CN(C)S(=O)(=O)c2ccccc2)[C@@H](C)CN([C@H](C)CO)C(=O)c2cc(NS(=O)(=O)c3ccccc3)ccc2O1	-3	-10
O=C(C[C@H]1CC[C@H](NC(=O)CN2CCOCC2)[C@H](CO)O1)NCCc1ccncc1	15	15
CC(=O)N(C)C[C@H]1Oc2ncc(C#Cc3cccc(F)c3)cc2C(=O)N([C@H](C)CO)C[C@@H]1C	21	4
C[C@@H]1CN([C@@H](C)CO)S(=O)(=O)c2ccc(C3=CCCCC3)cc2O[C@H]1CN(C)Cc1cccnc1	u	x
CNC[C@@H]1Oc2ccc(NC(=O)C3CC3)cc2C(=O)N([C@H](C)CO)C[C@H]1C	16	13
C[C@H]1CN([C@@H](C)CO)C(=O)c2cccc(NC(=O)CCCCCC(=O)Nc3ccccc3N)c2O[C@@H]1CN(C)C(=O)Nc1ccc(F)cc1	-12	-13
CN(C)CC(=O)N1CCCCN2[C@H](C1)[C@@H](c1ccc(-c3cccc(C(=O)N(C)C)c3)cc1)[C@@H]2CO	26	1
C[C@H](CO)N1C[C@H](C)[C@H](CN(C)S(C)(=O)=O)Oc2ncc(C#Cc3cccc(F)c3)cc2C1=O	-1	6
C[C@@H]1CN([C@H](C)CO)C(=O)Cc2cc(NS(=O)(=O)c3cn(C)cn3)ccc2O[C@@H]1CN(C)S(C)(=O)=O	6	4
CN1CCN(C(=O)C[C@H]2CC[C@H](NC(=O)Nc3ccccc3F)[C@H](CO)O2)CC1	-4	5
COc1ccc(CN(C)C[C@@H]2Oc3ccc(NS(=O)(=O)c4ccccc4)cc3C(=O)N([C@H](C)CO)C[C@@H]2C)cc1	12	-1
O=C(C[C@H]1C[C@H]2c3cc(NC(=O)C4CCOCC4)ccc3O[C@H]2[C@H](CO)O1)NC1CCCC1	-1	2
C[C@H]1CN([C@@H](C)CO)S(=O)(=O)c2ccc(C#CC3CC3)cc2O[C@H]1CN(C)Cc1ccccc1F	-17	-5
C[C@H](CO)N1C[C@H](C)[C@@H](CN(C)S(C)(=O)=O)Oc2ccc(NC(=O)Cc3cn(C)c4ccccc34)cc2CC1=O	11	16
C[C@H]1CN([C@@H](C)CO)C(=O)c2cccc(NS(=O)(=O)c3ccccc3)c2O[C@@H]1CN(C)CC1CC1	8	7
COc1cccc(NC(=O)Nc2ccc3c(c2)C(=O)N(C)C[C@H](OC)[C@@H](C)CN(CC2CC2)[C@H](C)CO3)c1	-19	-15
O=C(Cc1ccccn1)NCC[C@@H]1CC[C@@H](NS(=O)(=O)c2ccc(F)cc2)[C@H](CO)O1	-1	12
CO[C@@H]1CN(C)C(=O)c2ccc(NC(=O)Nc3c(C)noc3C)cc2OC[C@@H](C)N(C(=O)Nc2cccc(Cl)c2)C[C@H]1C	-14	-12
C[C@H]1CN([C@@H](C)CO)C(=O)c2cccc(NC(=O)Nc3ccc(F)cc3)c2O[C@H]1CN(C)S(=O)(=O)c1cccs1	-2	0
C[C@H](CO)N1C[C@H](C)[C@H](CN(C)C(=O)Nc2ccc(F)cc2)Oc2ncc(C#C[C@@H](C)O)cc2C1=O	24	25
CCNC(=O)[C@H]1[C@H](CO)[C@H]2Cn3c(ccc(-c4cncnc4)c3=O)[C@H]2N1Cc1ccc2c(c1)OCO2	6	9
CC(=O)N(C)C[C@H]1Oc2cc(-c3ccc(C#N)cc3)ccc2S(=O)(=O)N([C@H](C)CO)C[C@H]1C	1	2
COc1ccccc1-c1ccc([C@H]2[C@@H](CO)N(C(=O)NC(C)C)[C@H]2C#N)cc1	-3	-5
CCC(=O)Nc1ccc2c(c1)OC[C@@H](C)N(C(=O)c1ccccc1F)C[C@H](C)[C@H](OC)CN(C)C2=O	7	3
CO[C@H]1CN(C)C(=O)c2cc(NS(=O)(=O)Cc3ccccc3)ccc2OC[C@@H](C)NC[C@H]1C	5	11
Cc1noc(C)c1NC(=O)N(C)C[C@H]1OCCCC[C@@H](C)Oc2ccc(NS(=O)(=O)c3ccc(Cl)cc3)cc2C(=O)N([C@@H](C)CO)C[C@H]1C	26	10
CCC(=O)N(C)C[C@@H]1Oc2cc(C#CC3CCCC3)ccc2S(=O)(=O)N([C@@H](C)CO)C[C@H]1C	-13	-9
C[C@@H]1CN([C@H](C)CO)C(=O)c2cc(NC(=O)C3CCCCC3)ccc2O[C@@H]1CN(C)C(=O)Nc1ccccc1	10	6
CO[C@H](CN(C)S(=O)(=O)c1ccc(F)cc1)[C@H](C)CN(C(=O)Nc1ccccc1F)[C@@H](C)CO	-5	-3
O=C(NCC[C@@H]1CC[C@H](NC(=O)c2cnccn2)[C@@H](CO)O1)Nc1ccc(F)cc1	1	3
O=C(C[C@@H]1CC[C@@H]2[C@H](COC[C@H](O)CN2C(=O)Nc2cc(Cl)cc(Cl)c2)O1)NCC1CCCCC1	u	x
COCC(=O)NC[C@@H]1[C@@H](c2ccc(-c3ccccc3)cc2)[C@H](CO)N1C(C)=O	17	11
CCS(=O)(=O)N[C@@H]1C=C[C@@H](CC(=O)NCC2CCCCC2)O[C@@H]1CO	4	8
COc1ccc(C(=O)N2C[C@H]3[C@@H](c4ccccc42)[C@H](CO)N3Cc2ccc3c(c2)OCO3)cc1	-4	1
CN(C)C(=O)C[C@@H]1C[C@H]2c3cc(NC(=O)Nc4ccc(F)cc4)ccc3O[C@H]2[C@H](CO)O1	11	11
CCC(=O)N1C[C@@H](O)COC[C@@H]2O[C@@H](CC(=O)NC)CC[C@H]21	23	10
COCC(=O)N1CC(=O)N2[C@H](CO)[C@@H](c3ccc(-c4ccccc4)cc3)[C@H]2C1	0	-9
C[C@H](CO)N1C[C@H](C)[C@H](CN(C)Cc2ccc(C(F)(F)F)cc2)Oc2ccc(NC(=O)Nc3ccccc3)cc2C1=O	-17	-5
C[C@H](CO)N1C[C@H](C)[C@H](CN(C)Cc2ccc(Cl)c(Cl)c2)Oc2ccc(NC(=O)Cc3ccccc3)cc2C1=O	u	x
CC(C)CC#Cc1ccc2c(c1)O[C@H](CN(C)Cc1cccc(F)c1)[C@@H](C)CN([C@H](C)CO)S2(=O)=O	-19	-17
CCCN(C)C[C@@H]1OCCCC[C@H](C)Oc2ccc(NC(=O)NC3CCCCC3)cc2C(=O)N([C@@H](C)CO)C[C@@H]1C	-24	-16
COc1ccc(NC(=O)Nc2cccc3c2O[C@H](CN(C)C(=O)NC2CCCCC2)[C@H](C)CN([C@@H](C)CO)C3=O)cc1	-23	-18
CCNC(=O)C[C@@H]1CC[C@H]2[C@@H](COc3ccc(NC(=O)c4ccc5c(c4)OCO5)cc3C(=O)N2C)O1	14	6
C[C@@H]1CCCCO[C@@H](CN(C)Cc2ccc(Cl)c(Cl)c2)[C@@H](C)CN([C@H](C)CO)C(=O)c2cc(NS(=O)(=O)c3ccc(F)cc3)ccc2O1	-31	-25
C[C@H]1CCCCO[C@H](CN(C)CC2CCCCC2)[C@@H](C)CN([C@@H](C)CO)C(=O)c2cc(NC(=O)Nc3ccc(F)cc3)ccc2O1	u	x
CO[C@H]1CC[C@H]2CCN(C)C(=O)[C@@H](C)[C@H](OC)CN(C)C(=O)c3cccc(C#N)c3OC[C@@H]1O2	16	15
C/C=C/c1ccc2c(c1)O[C@@H](CN(C)C(=O)COC)[C@@H](C)CN([C@@H](C)CO)S2(=O)=O	9	8
COc1ccc(NC(=O)N(C)C[C@@H]2Oc3ccc(NC(=O)c4ccncc4)cc3C(=O)N([C@@H](C)CO)C[C@H]2C)cc1	-1	8

An excerpt from the list above:
canonical_smiles	Vaccinia inh	Vaccinia inh Venus
CCCN(C)C[C@@H]1OCCCC[C@H](C)Oc2ccc(NC(=O)NC3CCCCC3)cc2C(=O)N([C@@H](C)CO)C[C@@H]1C	-24	-16
COc1ccc(NC(=O)Nc2cccc3c2O[C@H](CN(C)C(=O)NC2CCCCC2)[C@H](C)CN([C@@H](C)CO)C3=O)cc1	-23	-18
CCNC(=O)C[C@@H]1CC[C@H]2[C@@H](COc3ccc(NC(=O)c4ccc5c(c4)OCO5)cc3C(=O)N2C)O1	14	6

Other records follow.
canonical_smiles	Vaccinia inh	Vaccinia inh Venus
C[C@@H]1CN([C@@H](C)CO)S(=O)(=O)c2ccc(-c3cccnc3)cc2O[C@H]1CN(C)C(=O)NC1CCCC1	4	3
COc1ccccc1C#Cc1ccc([C@@H]2[C@@H](CO)N(C(=O)C3CC3)[C@H]2C#N)cc1	u	x
Cc1noc(C)c1S(=O)(=O)N(C)C[C@H]1Oc2ccc(NC(=O)CCN3CCOCC3)cc2CC(=O)N([C@H](C)CO)C[C@@H]1C	21	20
CC(=O)N(C)C[C@H]1Oc2ncc(-c3ccccc3F)cc2C(=O)N([C@H](C)CO)C[C@H]1C	20	8
O=C(C[C@@H]1CC[C@@H]2[C@H](COC[C@@H](O)CN2Cc2ccc(F)cc2)O1)NCc1ccncn1	14	13
C[C@@H]1CN([C@@H](C)CO)C(=O)c2cccc(NC(=O)c3nc4ccccc4s3)c2O[C@H]1CN(C)C(=O)Nc1ccc(F)cc1	4	3
CCCNC(=O)C[C@H]1CC[C@H]2[C@@H](COC[C@@H](O)CN2Cc2ccncc2)O1	1	6
Cc1ccccc1S(=O)(=O)N1CC(=O)N2[C@@H](CO)[C@H](c3ccc(C#CC4CC4)cc3)[C@@H]2C1	15	1

Screens deposited in PubChem by Broad Institute.
